High-throughput results from PubChem.
YopH inh: YopH (Yersinia) phosphatase inhibition; hit rate 0.16% among 140,000; fluorescence Ex485/Em525; inhibition, %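 (about 10 µM by stock and volumes)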; AID 898;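 active means inhibition of 50% or more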;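 further: controls were vehicle for no effect and minimum signal wells for full effect; inactives centre near -20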
Mtb bLac sens: beta-lactam sensitization of Mtb H37Rv. M. tuberculosis H37Rv growth with meropenem, percent inhibition; hits of this screen are not shown here. inhibition, % at 25 µM. hit rate 0.27% among 330,000;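 active means about 74% or more and at least 40 points above the plate without the antibiotic, then above 30% in a dose series; inconclusive means first-round hits that could not be retested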;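 further: growth measured after seven days incubation then overnight dye step; 0% = bacteria only wells and 100% = bacteria with antibiotic; twin plates without the antibiotic show which effects depend on it; some results filed as inactive read as strong as hits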
Mtb H37Rv: M. tuberculosis H37Rv growth inhibitors, H37Rv strain (AID 1626); M. tuberculosis H37Rv growth inhibition; higher % means a stronger effect; inhibition, % at 10 µM, or IC50 in µM where a hit was titrated; hit rate 0.95% among 220,000;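 active means confirmed in a dose series; inconclusive means inhibition above 80% but not taken into the dose series; inactive means below 80% or under 30% at every dose of the series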;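 further: bacteria incubated seven days before Alamar blue readout; 0% = bacteria only wells and 100% = bacteria with antibiotic wells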
Arbovirus inh: antivirals against arbovirus infection. inhibition, % at 10 µM. arbovirus infection cell-based antiviral screen. hit rate 0.37% among 200,000;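 active means inhibition from about 30%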;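 further: bluetongue infection of BSR cells; cell survival read as ATP light after 72 h; 0% = infected wells without compound and 100% = uninfected wells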
RecA splice inh: inhibitors of M. tuberculosis RecA intein splicing; P9WHJ3; cell-free RecA intein splicing, fluorescence; inhibition, %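 (about 9 µM by stock and volumes)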; hit rate 0.75% among 290,000; in the data active means inhibition above about 30%; inconclusive means no clear call, values can overlap the other calls;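 further: 0% = vehicle wells and 100% = reference inhibitor control wells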
Target sequence (P9WHJ3 whole entry, looked up, canonical isoform): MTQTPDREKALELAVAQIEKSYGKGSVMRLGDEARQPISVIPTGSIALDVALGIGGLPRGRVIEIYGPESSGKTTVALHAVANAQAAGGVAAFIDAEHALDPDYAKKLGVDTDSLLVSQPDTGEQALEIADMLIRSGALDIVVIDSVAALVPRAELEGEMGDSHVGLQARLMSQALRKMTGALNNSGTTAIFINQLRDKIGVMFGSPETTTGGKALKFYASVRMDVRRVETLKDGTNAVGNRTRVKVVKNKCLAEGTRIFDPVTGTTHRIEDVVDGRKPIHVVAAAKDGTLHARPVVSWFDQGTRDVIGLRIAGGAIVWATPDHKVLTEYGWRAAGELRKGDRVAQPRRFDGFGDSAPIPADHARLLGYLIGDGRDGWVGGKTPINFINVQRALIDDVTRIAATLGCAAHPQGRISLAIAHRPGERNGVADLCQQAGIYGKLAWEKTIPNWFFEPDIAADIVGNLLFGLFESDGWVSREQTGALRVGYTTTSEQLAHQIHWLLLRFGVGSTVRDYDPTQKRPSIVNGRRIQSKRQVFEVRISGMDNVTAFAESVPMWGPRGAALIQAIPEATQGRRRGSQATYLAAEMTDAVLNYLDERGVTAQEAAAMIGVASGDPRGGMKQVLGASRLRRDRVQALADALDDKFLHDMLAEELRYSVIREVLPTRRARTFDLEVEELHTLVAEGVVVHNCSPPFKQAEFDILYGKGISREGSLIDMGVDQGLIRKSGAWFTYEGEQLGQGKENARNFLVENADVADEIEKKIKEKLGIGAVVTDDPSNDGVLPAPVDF
Arbovirus inh repeat: further read-out of Arbovirus inh, marked with its call; inhibition, %; measured here: 10K subset replicate screen; many hits read low in the repeat;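 first of two repeat runs on a subset; 0% = infected and 100% = uninfected wells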
* marks the source's active call; other numbers are inactive results; ? = inconclusive; / = not tested or not shown. An excerpt; the hit share may differ from the screen's.

SMILES | YopH inh | Mtb bLac sens | Mtb H37Rv | Arbovirus inh | RecA splice inh | others
O=C(O)c1ccc2c(c1)C(=O)N(c1cccc(S(=O)(=O)Nc3cccc(C(F)(F)F)c3)c1)C2=O | / | -3 | -4% | 14 | 0.3
COc1ccccc1OCCn1c(=O)n(C)c2ccccc21 | / | -5 | -2% | 4 | -1.7
COC(=O)c1ccc(Nc2ncnc3sccc23)cc1 | / | 5 | / | / | -2.1
NC(=O)c1oc2ccccc2c1NC(=O)CS(=O)(=O)c1ccccc1 | / | -5 | / | / | 2.3
O=C(Nc1cccc(S(=O)(=O)N2CCOCC2)c1)C1CCCN(C(=O)c2ccc(Cl)cc2)C1 (configuration not stated) | / | 3 | 1% | / | 2.1
O=C(CC1NCCNC1=O)Nc1cccc([N+](=O)[O-])c1 (configuration not stated) | / | 2 | -1% | 2 | -0.8
Cn1c(=O)c2c(nc(Sc3ncnn3CC(=O)NC(C)(C)C)n2C)n(C)c1=O | / | -3 | 1% | 6 | 0.0
Cc1ccc(S(=O)(=O)N2CCN(C(=O)C3COc4ccccc4O3)CC2)cc1C (configuration not stated) | -33 | -12 | -3% | 5 | 1.8
Cn1cnnc1SCc1cccc(Br)c1 | -12 | 6 | -3% | 6 | -12
O=C(c1ccc(Br)o1)N1CCN(Cc2ccc3c(c2)OCO3)CC1 | -21 | 15 | 65% | 7 | 0.2
Cc1cc(C)c2nc(Cl)c(CN(Cc3ccco3)C(=O)Nc3ccccc3C)cc2c1 | -33 | 7 | -6% | -18 | 2.4
CC(C)CN(Cc1c(O)ccc2c3c(c(=O)oc12)CCC3)CC(C)C | -112 | 4 | 4% | 1 | -11
O=C(O)c1ccccc1C(=O)Nc1c(-c2ccccc2)nc2ccccn12 | / | -4 | / | / | -3.3
CC(=O)Nc1nnc(SCC(=O)NCc2ccc3c(c2)OCO3)s1 | / | -12 | / | / | 1.9
CCOC(=O)c1oc2ccccc2c1NC(=O)C(C)(C)C | / | -5 | 7% | 10 | -1.5
CC1CCCCN1S(=O)(=O)c1ccc2c(c1)CCN2C(=O)C1CC1 (configuration not stated) | / | -2 | / | / | -0.2
CCC(C)C(=O)Nc1nc(C)c(-c2csc(Nc3cc(Cl)ccc3OC)n2)s1 (configuration not stated) | -29 | -3 | -1% | 12 | 6.5
CC(=O)c1cccc(NC(=O)/C(=C\c2cccnc2)NC(=O)c2ccc(C)cc2)c1 | / | 1 | / | / | -1.3
CCOc1cccc2sc(N(CCN(C)C)C(=O)c3ccc4c(c3)OCCO4)nc12 | / | -3 | / | / | 0.2
COc1ccccc1/C=C/C(=O)OCC(=O)NNC(=O)c1ccccc1 | -30 | -1 | -7% | 5 | 3.3
COc1ccc(/C=N\Nc2ccc([N+](=O)[O-])cc2)c(C(=O)O)c1OC | / | 90 | 7% | / | 1.2
COc1ccccc1NCC(=O)NNC(C)C(=O)Nc1cccc(Cl)c1 (configuration not stated) | / | 0 | -1% | 3 | -3.4
CS(=O)(=O)N1CCN(c2ccccc2NC(=O)CSc2ccc(Cl)cc2)CC1 | -8 | -5 | 4% | 8 | 6.4
CCN(Cc1cnn(C)c1)C(=O)c1cc(COc2cc(C)c(Cl)c(C)c2)on1 | / | 10 | / | / | 7.7
Cc1cccc(NC(=O)c2nc(-c3ccccc3)n(-c3ccccc3)n2)c1C | -29 | 68 | 11% | -10 | 2.2
CC1(C)CC(=O)C(C(=O)/C=C/c2ccco2)C(=O)C1 | / | 14 | -4% | 1 | -3.4
O=C(Nc1ccc2c(c1)OCCO2)C1CC1c1ccccc1 (configuration not stated) | -22 | -1 | 8% | 3 | 2.4
Cc1cc(C)cc(NC(=O)C2CCN(S(=O)(=O)c3ccc4c(c3)NC(=O)C(C)S4)CC2)c1 (configuration not stated) | / | 4 | / | / | 0.9
CCOC(=O)c1c(NC(=O)CSc2nc3ccccc3o2)sc(C)c1C | -22 | 63 | 16% | 9 | -3.0
Cc1cc2nc(-c3ccc[nH]c3=O)[nH]c2cc1C | / | 8 | / | / | -84
CC(=O)Nc1ccc(S(=O)(=O)Nc2cccc(-c3nc4ccccc4o3)c2)cc1 | -2 | -4 | 7% | -10 | -3.0
Cc1cccnc1CC(C)NC(=O)c1cc(COc2cncc(Cl)c2)on1 (configuration not stated) | / | -9 | / | / | 3.3
COc1ccc(CC2(CO)CCN(S(=O)(=O)N(C)C)CC2)cc1 | / | 1 | -13% | 1 | -1.8
CC(=O)Oc1ccc2c(c1)cc(C)n2C | 32 | 3 | -6% | 2 | -0.7
OC(CNCc1ccccc1)c1ccccc1 (configuration not stated) | / | -1 | -7% | / | -11
CCOc1ccccc1NC(=O)CN(c1cc(C)cc(C)c1)S(=O)(=O)c1c(C)noc1C | 1 | 3 | -12% | -3 | -0.1 | Arbovirus inh repeat=-3
CCn1c(SCc2ccc(Cl)cc2)nc2nc3c(cc2c1=O)CCCC3 | -40 | 11 | 6% | -5 | 3.9
CC(=O)OC[C@H]1O[C@@H](n2ccc(=O)[nH]c2=S)C(OC(C)=O)C1OC(C)=O (some centres not stated) | -11 | 4 | 1% | 3 | 0.8
Cc1ccc(S(=O)(=O)N/N=C\c2ccc([N+](=O)[O-])o2)cc1C | / | 100 | / | / | -3.3
Cc1nc(NCc2ccc(S(N)(=O)=O)cc2)c2c(C)c(C)sc2n1 | / | -6 | / | / | 1.4
CCCc1cc(=O)oc2cc(C)cc(OCC(=O)Nc3ccccn3)c12 | / | -4 | / | / | 0.4
CC(=O)Nc1cccc(OCCCOc2ccc([N+](=O)[O-])cc2)c1 | / | 3 | 5% | / | -1.5
CCc1cc(C(=O)c2ccc(OC)cc2)c(NC(=O)CN2CCCC2)s1 | / | 35 | 7% | / | 8.2
O=C(O)Cn1cnc2c(=S)nc[nH]c21 | / | -3 | 21% | / | -1.6
O=C(Nc1ccc(C(=O)O)cc1)/C(=C\c1ccccc1)NC(=O)c1ccco1 | / | -9 | / | / | -3.4
O=C(OCCNc1ncc(C(F)(F)F)cc1Cl)c1ccc(S(=O)(=O)N2CCOCC2)cc1 | -23 | 8 | 6% | 0 | 0.0 | Arbovirus inh repeat=-6
Cc1ccc(-c2csc3nc(CN(C)Cc4ccccc4)[nH]c(=O)c23)cc1 | / | 56 | 5% | 15 | -0.6
CN(C(=O)c1ccc2c(c1)C(=O)N(CCC1=CCCCC1)C2=O)C1CCCCC1 | -35 | -2 | 6% | 7 | 9.2
O=C(CSC1=NS(=O)(=O)c2cc(F)ccc2N1)Nc1cccc(F)c1 | / | 0 | / | / | 1.6
COc1cc(OC)cc(C(=O)NC2CCSc3ccccc32)c1 (configuration not stated) | / | 7 | / | / | -0.9

(listing goes on)
SMILES | YopH inh | Mtb bLac sens | Mtb H37Rv | Arbovirus inh | RecA splice inh | others
CC1=C(C(=O)OC(C)C)C(c2ccccc2)NC(=O)N1C (configuration not stated) | / | 2 | / | / | -3.9
O=[N+]([O-])c1cccc(-c2cn3ccccc3n2)c1 | / | 30 | 5% | -4 | -9.9
O=C(NCc1ccco1)Nc1ccccc1Cl | 10 | -6 | -6% | -2 | -0.1
COc1ccc(NC(C)=O)c2nc(C)c(C)nc12 | -26 | 6 | -8% | 6 | -2.2 | Arbovirus inh repeat=3
Cc1cc(C)cc(NC(=O)CCN2CCCC2)c1 | / | -4 | 3% | 2 | -0.6
CCCn1c(SCC(=O)N2c3ccccc3Sc3ccccc32)nc2ccccc21 | -14 | -2 | 5% | 6 | 12
COc1ccccc1NS(=O)(=O)c1cccc(NC(=O)c2sc3ccccc3c2Cl)c1 | / | 0 | 4% | 0 | -0.7
COc1cc(OC)cc(C(=O)NCC(=O)OCC(=O)NC(C)(C)C)c1 | -23 | 11 | -6% | 4 | -1.9
CCCC(=O)NC(=S)Nc1cccc(NC(=O)c2ccccc2Cl)c1 | -12 | 1 | 0% | -13 | 1.0
COc1ccccc1N1C(=O)C2C(c3ccccc3F)NN(C(=O)c3ccc(C)cc3)C2C1=O (configuration not stated) | -27 | 2 | / | -1 | 0.0
O=C(Nc1ccc(C(=O)N2CCOCC2)cc1)c1cc(-c2cccnc2)nc2ccc(Cl)cc12 | / | 18 | 14% | 1 | -1.0
CC(=O)c1cccc(NC(=O)c2ccc(CN3CCc4ccccc4C3)cc2)c1 | / | 7 | / | / | 0.3
Cc1cc(C)nc(Nc2n[nH]c(C)n2)n1 | / | 1 | -6% | 0 | 1.1
COCCn1cc(C(=O)NCCCN2CCC(C)CC2)c2c3ccccc3n(C)c2c1=O | -20 | -6 | -4% | 18 | /
Cc1cc(O)c(C(=O)Cc2csc(C)n2)c(O)c1 | / | 8 | 6% | 19 | -4.8
O=C(CCSCCC(=O)Nc1ccccc1F)Nc1ccccc1F | -15 | -1 | 4% | -5 | 3.0
COc1ccc(CNc2oc(-c3cccc4ccccc34)nc2P(=O)(OC)OC)cc1 | / | -7 | 20% | -8 | 15
CC1CCCCN1CCCNc1ccc(C(CC(N)=O)NC(=O)Cc2cccc3ccccc23)cc1[N+](=O)[O-] (configuration not stated) | / | -9 | / | / | -1.4
NCCCCCc1nnc(SCc2cccc(Cl)c2)o1 | -48 | -2 | 3% | -12 | 0.0
CCOc1ccc(C=Nc2cccc3ncccc23)cc1 | / | -3 | 1% | -4 | -3.5
COc1ccc(OC)c(C2C3=C(CC(C)(C)CC3=O)Nc3nnnn32)c1 (configuration not stated) | -28 | -3 | -3% | 1 | -3.2
O=C1[C@H]2[C@H](C=CC[C@H]2C(=O)N2CCN(c3ccccc3)CC2)CCN1Cc1ccccc1 | / | -15 | -7% | / | -1.4
COc1cccc(CN(C)C(=O)CSCC(=O)Nc2cc(C)on2)c1OC | / | -10 | / | / | -1.6
Cc1nc(C)c(-c2ccc(SCc3ccc(Cl)cc3)nn2)s1 | / | 8 | / | / | 2.1
O=C(NCCc1ccccc1)c1ccc2c(c1)N(Cc1ccccc1)CCS2 | / | 6 | / | / | -1.8
COc1ccc(S(=O)(=O)NCC(c2cccnc2)N2CCN(C)CC2)cc1C (configuration not stated) | -24 | -1 | 0% | 9 | -0.1 | Arbovirus inh repeat=4
COc1ccc(CCN(C)CC(O)COC(c2ccc(F)cc2)c2ccc(F)cc2)cc1OC (configuration not stated) | / | 5 | / | / | 6.1
CC(=O)Nc1ccc2c(c1)OCCOCCOc1cc(NC(C)=O)ccc1OCCO2 | / | 4 | -1% | / | 2.1
CC(C(=O)Nc1cccnc1)N1C(=O)c2ccccc2C1=O (configuration not stated) | -42 | 6 | -7% | 5 | -1.4
COc1ccc(-c2cnnn2-c2ccc(N)cc2)cc1OC | -13 | -4 | -4% | -8 | -0.3

Random excerpt: 6 entries already listed.
SMILES | YopH inh | Mtb bLac sens | Mtb H37Rv | Arbovirus inh | RecA splice inh | others
CC(=O)Nc1cccc(OCCCOc2ccc([N+](=O)[O-])cc2)c1 | / | 3 | 5% | / | -1.5
CC(=O)Nc1nnc(SCC(=O)NCc2ccc3c(c2)OCO3)s1 | / | -12 | / | / | 1.9
CC(=O)OC[C@H]1O[C@@H](n2ccc(=O)[nH]c2=S)C(OC(C)=O)C1OC(C)=O (some centres not stated) | -11 | 4 | 1% | 3 | 0.8
CS(=O)(=O)N1CCN(c2ccccc2NC(=O)CSc2ccc(Cl)cc2)CC1 | -8 | -5 | 4% | 8 | 6.4
CC(=O)c1cccc(NC(=O)/C(=C\c2cccnc2)NC(=O)c2ccc(C)cc2)c1 | / | 1 | / | / | -1.3
Cc1ccc(-c2csc3nc(CN(C)Cc4ccccc4)[nH]c(=O)c23)cc1 | / | 56 | 5% | 15 | -0.6

The listing continues.
SMILES | YopH inh | Mtb bLac sens | Mtb H37Rv | Arbovirus inh | RecA splice inh | others
CCCc1nnc(SCC(=O)NC2CCCC2)n1CCOC | / | 0 | / | / | -1.2
COc1ccc(N2C(=O)CSC(c3ccccc3)C2=O)cc1 (configuration not stated) | / | -4 | 2% | 4 | 6.1
N#CCN1C(=O)C(=O)N(Cc2cccc(Cl)c2)C1=O | / | 6 | / | / | -1.5
COc1ccc(N(CC(=O)NCCc2ccc(Cl)cc2)S(=O)(=O)c2c(C)[nH]c(=O)[nH]c2=O)cc1 | / | -3 | 0% | 22 | /
COC(=O)c1ccc(C(=O)NC(=S)Nc2ccc3nc(SC)sc3c2)cc1 | -29 | -8 | ? | -6 | -0.9
N#CCCN(Cc1ccccc1)C(=S)Nc1ccccc1 | -25 | 2 | -10% | 5 | 1.0
CC(=O)Nc1ccc(N2CCCC(C)C2)c([N+](=O)[O-])c1 (configuration not stated) | / | -2 | 11% | -3 | -1.7
CC(C)C(OC(=O)CCCC(=O)Nc1nccs1)C(=O)NC1CCCCC1 (configuration not stated) | / | -1 | -5% | -2 | 1.9
Clc1cccc(N=C2NN=C(c3ccc4c(c3)OCCO4)CS2)c1 | 2 | 86 | 51% | -11 | 7.8
O=C(CCS(=O)(=O)c1ccccc1)Nc1nncs1 | / | 0 | / | / | 6.8
O=S(=O)(c1ccc(-c2ccon2)s1)N1CCN(c2ccccn2)CC1 | / | -2 | -2% | / | -5.3
